Compound activity from PubChem BioAssay.
TDP1 inh – blocks human tyrosyl-DNA phosphodiesterase 1. Q9NUW8. recombinant TDP1, AlphaScreen DNA substrate cleavage. Potency, µM (highest dose often 130 µM), for inactives: at the top dose activity change, negative = inhibition, usual class: inhibitors. 350,000 compounds, 0.28% hits; note: nearly all actives have a fitted effect of over 40% in size
Target sequence (Q9NUW8 whole entry, looked up): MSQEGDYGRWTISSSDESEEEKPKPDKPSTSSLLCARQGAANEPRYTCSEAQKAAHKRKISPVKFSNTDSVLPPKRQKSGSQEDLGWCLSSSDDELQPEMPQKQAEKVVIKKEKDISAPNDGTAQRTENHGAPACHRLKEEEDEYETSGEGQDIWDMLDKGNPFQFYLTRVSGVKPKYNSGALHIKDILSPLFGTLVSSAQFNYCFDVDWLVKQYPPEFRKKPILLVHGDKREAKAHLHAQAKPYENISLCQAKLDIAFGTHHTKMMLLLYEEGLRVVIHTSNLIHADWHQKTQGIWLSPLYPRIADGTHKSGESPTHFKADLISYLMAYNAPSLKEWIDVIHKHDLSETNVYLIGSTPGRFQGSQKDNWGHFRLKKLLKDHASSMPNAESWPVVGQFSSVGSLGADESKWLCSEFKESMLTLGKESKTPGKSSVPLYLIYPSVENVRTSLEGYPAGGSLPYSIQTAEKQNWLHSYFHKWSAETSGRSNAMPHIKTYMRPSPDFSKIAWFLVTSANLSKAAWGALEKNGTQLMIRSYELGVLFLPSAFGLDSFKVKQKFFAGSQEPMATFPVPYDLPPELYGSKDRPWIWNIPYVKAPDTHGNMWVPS
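Signal: AlphaScreen proximity between streptavidin donor and anti-FITC acceptor beads on intact substrate. Reaction: Tdp1 1 nM, substrate 15 nM final, 5 min RT after 15 min compound preincubation.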
N370S GC – inhibits or activates N370S mutant glucocerebrosidase. N370S GC spleen homogenate, 4MU-glucoside fluorescence. 330,000 compounds, 0.092% hits. P04062. Potency, µM (doses to about 59.4 µM), for the others: at the highest dose activity change, negative = inhibition, hits mostly inhibitors;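 note: 0% = full enzyme activity and -100% = no enzyme basal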
The depositor's hits bear a star; u = inconclusive; x = not tested or not shown; & = joins results of further samples; [ ] = another dose, or the depositor's remark. Calls come from the whole dose curve; as a rule, active = well fitted curve in the direction sought with a large enough effect; inconclusive = small, poorly fitted or top-dose-only effect, or another doubt; inactive = no such curve, though single readings can be large; an effect the other way counts as inactive or inconclusive. Unless noted, % is set by controls: 0 for no effect and ±100 for the full control effect; potency is the fitted concentration of half-maximal effect.

Sequence of screens – TDP1 inh, N370S GC
Cc1ccc(C)c(S(=O)(=O)NCc2ccc(C(=O)NCc3ccccn3)cc2)c1
→ 6.7%, -19.6%
Cc1onc(-c2ccccc2Cl)c1C(=O)NCCn1c(C)cc2ccccc21
→ x, -10.9%
CC1CCCCN1S(=O)(=O)c1ccc(C(=O)N2CCOCC2)cc1 (centres undefined)
→ 4.6%, -13.2%
COc1ccc(CCNC(=O)C2CCCN(c3nc4ccccc4s3)C2)cc1OC (centres undefined)
→ -2.8%, -6.8%
Cc1cc(=O)nc2c3ccccc3n(CC(=O)NCCCN3CCCCC3C)n12 (centres undefined)
→ -0.7%, 8.2%
COCC1CCCCN1C(=O)c1ccc(OC2CCN(Cc3ccccn3)CC2)cc1 (centres undefined)
→ 5.0%[56.1 µM], -4.3%
O=c1[nH]c(SCc2cccc(F)c2)nc2c1CCCC2
→ 2.6%, 24.7%
Cc1ccc(N(C(=O)C2CCCO2)C2C=CS(=O)(=O)C2)cc1Cl (centres undefined)
→ -2.3%, -25.0%
CCNc1nc(SCCOc2ccc(C)cc2)nc(N(C)C)n1
→ -1.0%, 23.3%
Cc1csc2ncc(C(=O)N3c4ccccc4CC3C)c(=O)n12 (centres undefined)
→ 0.0%, -5.5%

The final 2 records of the part above are carried over, then new ones follow.
Sequence of screens – TDP1 inh, N370S GC
CCNc1nc(SCCOc2ccc(C)cc2)nc(N(C)C)n1
→ -1.0%, 23.3%
Cc1csc2ncc(C(=O)N3c4ccccc4CC3C)c(=O)n12 (centres undefined)
→ 0.0%, -5.5%
Cc1ccc(C(=O)NCCSc2c(C)[nH]c3ccccc23)cc1[N+](=O)[O-]
→ -2.6%, 4.0%
Cc1cccc(/C=N\N=C\c2cccc(C)c2)c1
→ x, -3.2%
CCOc1ccc(NC(=O)CCn2c(=S)oc3ccccc32)cc1
→ x, 3.0%
COc1ccccc1C(=O)C1CCCN(C(=O)c2cnn(C(C)C)c2)C1 (centres undefined)
→ 0.6%, -3.7%
O=C(CCSCc1ccc(Cl)cc1)NC1CCCC1
→ -4.2%, -1.4%
CCOC(=O)c1c(C)nsc1NC(=O)C1CCCCC1
→ -5.3%, -7.9%
COc1ccccc1N1CCN(S(=O)(=O)c2ccc(NC(C)=O)cc2)CC1
→ x, -6.4%
c1nc(N2CCN(Cc3ccc4c(c3)OCO4)CC2)c2[nH]cnc2n1
→ 2.6%, u
O=C(CCn1ccc2ccccc21)NC1CCCc2ccccc21 (centres undefined)
→ 3.9%, 3.7%
Cc1cc(S(=O)(=O)NCCCN2CCOCC2)ccc1Br
→ 2.3%, x
Cc1ccc(N2CCN(CC(O)COc3ccccc3)CC2)cc1 (centres undefined)
→ 3.4%, -4.0%
CCCCNS(=O)(=O)c1ccc2nc(-c3cccnc3)cc(C(=O)NCC(OC)OC)c2c1
→ x, -11.7%
O=c1c2ccccc2cnn1CCOc1cccc(Br)c1
→ 5.8%, -17.7%
CCn1c(C)cc(/C=C2/SC(=S)NC2=O)c1C
→ 3.0%, 1.2%
COCCN=c1scc(-c2cc(OC)ccc2OC)n1/N=C/c1c[nH]c2ccccc12
→ 10.3%, u
CN(CCCC(=O)NCc1ccco1)S(=O)(=O)c1ccccc1
→ -6.6%, 1.1%
Nn1c(SCC(=O)Nc2ccc3c(c2)OCO3)nncc1=O
→ 5.0%, -5.7%
COc1cccc(C(C#N)N2N=C(C)CC2(C)C)c1O (centres undefined)
→ -4.8%, 1.3%
O=C(CSc1nnnn1-c1ccccc1)Nc1ccc(Cl)cn1
→ 4.4%, 2.6%
Cc1ccc(C)n1-c1cccc(C(=O)Nc2ccccc2)c1
→ x, 18.6%
CN1CCN(S(=O)(=O)c2cccc(C(=O)NCCOc3ccccc3)c2)CC1
→ 4.4%, 1.9%
COc1cc(CN2CC(=O)N(c3ccc(C)c(Cl)c3)C2=S)cc(OC)c1OC
→ x, -3.9%
CCOC(=O)CSc1nc(NC#N)nc(N(CC)CC)n1
→ 7.1%[56.1 µM], -0.5%
Cc1cc(NC(=O)c2ccc(Cl)c([N+](=O)[O-])c2)no1
→ 8.6%, -2.7%
C/C(=N\Nc1ccc2nncn2n1)c1cccs1
→ 0.0%, -4.7%
O=C(NNc1ccccc1)C(CCO)C(=O)NNc1ccccc1
→ 5.5%, -10.3%
COc1ccccc1CCN=C(N)NS(=O)(=O)c1ccccc1F
→ 3.7%, -4.8%
CC(C)(C)OC(=O)N1CCC(c2c(C(=O)NCc3ccccn3)cnn2-c2ccccc2Cl)CC1
→ 3.2%, x
CCNC(=O)CC1C(=O)N(c2ccc(F)cc2)C(=O)N1Cc1ccccn1 (centres undefined)
→ 1.0%, 4.5%
CCOC(=O)C1=C(c2ccccc2)N2CCS(=O)(=O)N=C2S1
→ 1.1%, -1.9%
O=C(NCC1(N2CCOCC2)CCCCC1)c1ccc(Cl)c(S(=O)(=O)NCc2ccco2)c1
→ 6.3%, -2.3%
COc1cccc(C2CC(c3ccccc3)Nc3nc(N)nn32)c1 (centres undefined)
→ x, 7.5%
O=C(NCc1ccccn1)C(=O)C1C(=O)Nc2ccccc21 (centres undefined)
→ 5.0%, -6.3%
COc1ccc2nc(NC(=O)CCn3cccc3)sc2c1
→ 2.0%, 7.8%
CC(C)(C)c1cn(-c2ccc(Cl)cc2)c(=S)[nH]1
→ 0.0%, 0.7%
CC(C)(C)/C(Cn1cncn1)=N\OC(=O)Nc1ccc(Cl)cc1
→ 0.0%, 18.5%
CCCOc1ccc(/C=C/c2c([N+](=O)[O-])c(=O)n(C)c(=O)n2C)cc1
→ 4.4%, -1.2%
Cc1nc(NC(=O)CSc2nnc(C3CC3)n2C)sc1C
→ 3.8%[0.0935 µM], 1.4%
COc1ccc(S(=O)(=O)Cc2ccc(C(=O)N3CCC(C(N)=O)CC3)o2)cc1
→ 4.9%, 6.0%
O=C(CN1C(=O)COc2ccc(Cl)cc21)NCC1CCCO1 (centres undefined)
→ 3.0%, -0.8%

Following part
Structure,TDP1 inh,N370S GC
CCCCCCN=CC1=C(O)C(C(=O)OC)C(C)(C)CC1=O (centres undefined),6.6%,2.1%
COc1ccc(NC(=O)CN2CCc3ccccc3C2)cc1S(=O)(=O)N1CCOCC1,0.0%,-26.8%
COc1cc(Cc2nccc3cc(OC)c(OC)cc23)c(NC(C)=O)cc1OC,x,-5.5%
COc1ccc(C(=O)NNC(=O)c2cc3cccc(OC)c3oc2=O)cc1,4.2%,-3.1%
Cc1ccc(CN2CC(C(=O)Nc3ccc4c(C)cc(=O)oc4c3)CC2=O)cc1 (centres undefined),1.0%,11.8%
C=CCn1c(C)cc(C(=O)CSc2nc3ccccc3o2)c1C,6.2%,u
CCN(CCCNC(=O)c1c(C)oc2ncn(CC(C)C)c(=O)c12)Cc1ccccc1,6.3%,x
CCOC(=O)N1CCN(CCC(=O)Nc2ccc(OC)cc2OC)CC1,2.5%,16.0%
Clc1cccc(CNCCCSc2ncccn2)c1,x,1.0%
O=C(N/C(=C/c1cccnc1)C(=O)N1CCCCCC1)c1cccc(Br)c1,3.2%,-9.1%
COC(=O)C1=C(Nc2ccc(C)cc2)C=C(C)C(C(=O)OC)C1c1cccc(OC)c1 (centres undefined),3.3%,-3.1%
O=C(CSc1nc2ccccc2[nH]1)Nc1c(F)c(F)c(F)c(F)c1F,2.7%,8.9%
CCOc1ccccc1CNc1ncnc2ccc(-c3c(C)noc3C)cc12,1.3%&10.9%,-6.2%
CC1CC(C)CN(c2ccc(C(=O)NCc3ccc4c(c3)OCO4)cc2[N+](=O)[O-])C1 (centres undefined),1.9%,-3.8%
COc1nc(N)nc(N)c1NS(=O)(=O)c1ccc(C)cc1,3.8%,-1.9%
O=C1N=c2ccccc2=C1c1sc(NS(=O)(=O)c2ccccc2)nc1O,0.0%,11.5%
CCOC(=O)C1CCN(CCC(=O)Nc2cccc(Cl)c2)CC1,4.1%,-21.0%
CCN(CC(=O)Nc1ccc(Cl)c(S(=O)(=O)N(C)C)c1)CC(=O)NC(C)C,2.3%,-0.9%
Cc1ccc(NC(=O)c2c(C)nc(Nc3nc4ccccc4o3)nc2C)cc1,3.8%,6.7%
CC1CN(C2=CC(=O)CCC2)CC(C)O1 (centres undefined),-4.8%,-0.3%
O=C1CC(N2CCC(C(=O)N3CCCCC3)CC2)C(=O)N1 (centres undefined),6.2%,5.1%
CCCn1c(CNS(=O)(=O)c2ccc(C)cc2)nc2ccccc21,0.0%,4.6%
N=C1c2ccccc2CN1NC(=O)c1cccc(S(=O)(=O)N2CCCC2)c1,2.7%,-10.2%
Cc1cc(OC(C)C(=O)NCc2cccnc2)c2c(C)c(Cc3ccccc3)c(=O)oc2c1 (centres undefined),-9.1%,15.5%
O=c1[nH]ncc2c3ccccc3n(Cc3ccccc3)c12,x,8.1%
O=S1(=O)CCN(OCc2ccc(Cl)cc2)CC1,3.6%,-7.6%
CCOc1ccc(-c2cc(N)n(S(=O)(=O)c3ccc(OC)c(OC)c3)n2)cc1,2.0%,-9.7%
Cc1nc(CCNC(=O)CC2C(=O)NCCN2Cc2ccccc2F)sc1C (centres undefined),8.3%,6.8%
COC(=O)C1=NN[C@H](C(=O)OC(C)(C)C)[C@H]1c1ccccc1,-5.3%,5.5%
COc1ccc(S(=O)(=O)N2CCOCC2)cc1NC(=O)COc1ccccc1,x,0.1%
CCOC(=O)C1(Cc2cccc(OC)c2)CCN(Cc2cccc(OCC)c2O)CC1,6.0%,-10.1%
CCCOc1ccc2nc(C)c(CCC)c(SC(=N)N)c2c1,2.7%,-17.7%
COc1cc(OC)cc(C(=O)N/N=C2/SCC(=O)N2Cc2ccco2)c1,2.7%,7.6%
COc1cccc(CN2CC(C(=O)N3CCN(C(C)C)CC3)CCC2=O)c1 (centres undefined),1.7%,-7.5%
CC1CCCCN1C(=O)CSc1nc(-c2ccccc2)cn1N (centres undefined),8.0%,-0.6%
CCOC(=O)C1CCN(c2ncnc3c2[nH]c2cccc(OC)c23)CC1,-4.2%,-13.1%

Pulled one by one from the entries so far, 5 records:
Structure,TDP1 inh,N370S GC
COc1cc(OC)cc(C(=O)N/N=C2/SCC(=O)N2Cc2ccco2)c1,2.7%,7.6%
CCCOc1ccc2nc(C)c(CCC)c(SC(=N)N)c2c1,2.7%,-17.7%
O=S1(=O)CCN(OCc2ccc(Cl)cc2)CC1,3.6%,-7.6%
O=c1[nH]ncc2c3ccccc3n(Cc3ccccc3)c12,x,8.1%
CCOc1ccc(-c2cc(N)n(S(=O)(=O)c3ccc(OC)c(OC)c3)n2)cc1,2.0%,-9.7%

The list goes on:
Structure,TDP1 inh,N370S GC
COc1cc(/C=N/NC(=O)c2ccncc2)cc2c1OCO2,x,-10.9%
CCOC(=O)CCCNC(=O)CN1CCC(c2nc3ccccc3s2)CC1,x,-3.6%
COc1cccc(C(=O)NCC(c2ccco2)N2CCOCC2)c1 (centres undefined),x,-15.6%
Cc1nc(NC(=O)COC(=O)c2cccs2)c(Cl)cc1Cl,4.6%,1.9%
O=C(c1nc2ccccc2s1)N1CCSCC1,5.4%,-1.7%
CCOC(=O)c1c(NC(=O)COC)sc(C(C)=O)c1C,3.3%,1.6%
CC(C)=C(NC(=O)c1ccccc1)C(=O)NC(Cc1ccccc1)C(=O)O (centres undefined),1.8%,4.9%
CCCN(CCC)CCCNC(=O)c1cc2c(=O)[nH]c3ccccc3c2s1,x,4.9%
O=S(=O)(Nc1ccc2c(c1)CCC2)c1cccs1,1.0%,-1.9%
COc1ccc(-c2csc3nc(C)nc(N4CCN(C(C)=O)CC4)c23)cc1OC,1.2%,-17.8%
CCCCNC(=O)CN(c1cc(C(F)(F)F)ccc1Cl)S(C)(=O)=O,-2.6%,0.2%
CC(/C=N/Nc1nnc2c(n1)[nH]c1ccccc12)=C\c1ccco1,7.5%,15.1%
CCCn1c(NCc2ccco2)nc2ccccc21,5.5%,-1.8%
Cc1csc(NC(=O)CSc2ccc(-c3ccc(F)cc3)nn2)n1,3.1%,2.2%
C/C(CC(=O)Nc1ccc2c(c1)OCCO2)=N\NC(=O)C(=O)Nc1ccccc1C,5.1%,-1.0%
COc1ccc(NC(=O)N[C@@H](Cc2ccccc2)C(=O)NN)cc1,x,-0.9%
Cc1cccc(-c2n[nH]c(=S)n2/N=C/c2ccc(C)o2)c1,2.7%,5.6%
O=C(Cn1cnc2c(oc3nc4c(cc32)CCCC4)c1=O)Nc1cccc(Cl)c1,4.0%,2.5%
O=C(CCCN1C(=O)/C(=C/c2ccco2)SC1=S)Nc1ccccc1,0.0%,-0.8%
Cc1cccc(NC(=O)CCCn2cc([N+](=O)[O-])cn2)n1,5.3%,-10.6%
CCN(Cc1ccccc1)C(=O)C1CCN(Cc2sccc2C)CC1,-8.9%,-0.2%
COc1ccc(-c2cc(C(=O)NC3CC3)c3ccccc3n2)cc1,2.4%,7.1%
Cc1cccc(NC2=C(Cl)C(=O)OC2NC(=O)c2ccccc2)c1 (centres undefined),4.7%,-26.4%
CCOC(=O)C(=CNc1ccc(Oc2cncc(Cl)c2)nc1)C(=O)OCC,x,0.3%
CCCc1cc(=O)[nH]c(SCC(=O)N2CCc3cc(OC)c(OC)cc3C2)n1,-0.2%[56.1 µM],x
COc1ccc(C/C(C)=N/NC(=O)c2ccc(C)cc2C)cc1,1.6%,-24.1%
Cc1occc1C(=O)N/N=C/C=C/c1ccccc1[N+](=O)[O-],6.9%,-0.3%

Only part of the results is shown; most or all hits stand in other tables.
